# Bioassay records as filed in PubChem.
# 2A Renilla = lowers the Renilla signal of an FMDV 2A StopGo reporter. HEK cells with a luciferase reporter of 2A StopGo recoding. Potency, µM (titrated, usually from 57.5 µM), inactives show at the top dose signal change, negative = less light. 120,000 tested, 0.32% active. AID 1745857; active means well fitted falling curve with a large enough effect; inconclusive means small, poorly fitted or top-dose-only effect; inactive means no such curve, though single readings can be large or run the other way; also: nearly all actives have a fitted effect of over 55% in size; overnight with compound
# 2A firefly = FMDV 2A StopGo reporter, firefly signal; HEK cells with a luciferase reporter of 2A StopGo recoding; Potency, µM (doses to about 57.5 µM), inactives show at the top dose signal change, negative = less light; 120,000 tested, 0.23% active; AID 1745856; active = well fitted falling curve with a large enough effect; inconclusive = small, poorly fitted or top-dose-only effect; inactive = no such curve, though single readings can be large or run the other way; also: nearly all actives have a fitted effect of over 60% in size; overnight with compound
# * marks the source's active call; other numbers are inactive results; ? = inconclusive; & = joins results of further samples; [ ] = another dose, or the depositor's remark. % is scaled to controls: 0 for no effect and ±100 for the full control effect; potency is read from the fitted curve at half-maximal effect. An unsorted share of the library; 0.55% or so of the library scored in one or more.
# The first 2 compounds as a preview:
# Order of values: 2A Renilla | 2A firefly
COc1ccccc1C(=O)Nc1ccc(OCc2cc(=O)n3cc(C)sc3n2)cc1
→ -13% | -20%
Cc1cnc(C(=O)OCC(=O)c2ccc3ccccc3c2)cn1
→ -1%[1.06 µM] | 4%

# The listing (from the top)
# Order of values: 2A Renilla | 2A firefly
COc1ccccc1C(=O)Nc1ccc(OCc2cc(=O)n3cc(C)sc3n2)cc1
→ -13% | -20%
Cc1cnc(C(=O)OCC(=O)c2ccc3ccccc3c2)cn1
→ -1%[1.06 µM] | 4%
Cc1ccc(-c2noc(CSc3nnc(-c4ccc(Cl)cc4)n3C)n2)cc1
→ -5% | -4%
CC(=O)c1ccc(S(=O)(=O)NCCC(=O)O)cc1
→ 12% | 23%
c1cnc(N2CCN(Cc3ccc4c(c3)OCO4)CC2)nc1
→ -4% | -8%
COc1cccc(Oc2coc3cc(OC(=O)c4ccc(F)cc4)ccc3c2=O)c1
→ -16% | -2%
C[C@@H]1CCN(C(=O)[C@H](CCCN=C(N)N)NS(=O)(=O)c2cccc3c2NC[C@H](C)C3)[C@@H](C(=O)O)C1
→ -4% | -14%[11.5 µM]
O=C(CC1C=CCC1)N(Cc1ccco1)C1CC1 (stereo not given)
→ 24% | 0%
O=C(O)CCc1oc2cc(O)ccc2c(=O)c1-c1nc2ccccc2[nH]1
→ 7% | 150%[activator]
Cc1cc(OCC(=O)Nc2ccc3oc(-c4cccnc4)nc3c2)cc(C)c1Cl
→ 5% | 13%
COc1ccc(-n2ccnc(NCc3ccccc3OC)c2=O)cc1
→ 18% | 11%
Nc1nccnc1C(=O)NCC(O)c1ccc(F)cc1F (stereo not given)
→ -6% | 0%
CCCc1cc(=O)[nH]c(SCC(=O)N2CCN(c3ccccc3)CC2)n1
→ -4% | 0%
Cc1cc(C(=O)NCc2ccncc2)c2ccccc2n1
→ -1% | 4%
N#Cc1ccc(NC(=O)COC(=O)c2nc(-c3ccccc3)n(-c3ccccc3)n2)cc1Cl
→ -17% | -9%
Cc1cc2c(cc1S(=O)(=O)N1CCCCC1)OCC(=O)N2
→ 77%[activator] | 31%[activator]
Cc1ccc(-c2cc(C(=O)OCC(=O)NC(=O)NC(C)(C)C)c3ccccc3n2)o1
→ 12% | 0%
Cc1cc(C)c(NC(=O)Cn2c(=O)n(Cc3ccc4c(c3)OCO4)c(=O)c3ccccc32)c(C)c1
→ -4% | -11%
Cc1cccc(NC(=O)CN(C)S(=O)(=O)c2ccc3c(c2)CCC(=O)N3)c1C
→ -7% | -7%
CCOc1cccc2cc(C(=O)Nc3c(CC)cccc3CC)c(=O)oc12
→ -12% | -12%
CC12CN3CC(C)(CN(C1)C31C3CC4CC(C3)CC1C4)C2=O (stereo not given)
→ -4% | -6%
CCC(=O)N1c2ccccc2CC1C(=O)NCCN1CCN(c2ccccc2F)CC1 (stereo not given)
→ -18% | -14%
Cc1cc2ccccc2n1CCNC(=O)c1cccc([N+](=O)[O-])c1
→ -14% | -14%
CCN(CC)S(=O)(=O)c1ccc2c(c1)N(CC(=O)NCCCN1CCN(c3ccc(OC)cc3)CC1)C(=O)CO2
→ -15% | -19%
O=C(NC1CCCCC1)c1ccc2c(c1)-c1ccccc1C2
→ 45%[activator] | 187%[activator]
CCC1CCCCN1C(=O)/C=C/c1ccc(Br)cc1 (stereo not given)
→ -1% | 62%[activator]
Cc1ccc(Sc2nc3c(c(=O)[nH]c(=O)n3C)n2Cc2ccccc2)cc1
→ -4% | 8%
O=C(CSc1nnc(-c2cccnc2)n1-c1ccccc1)Nc1ccc(Cl)cn1
→ 7% | 159%[activator]
O=S(=O)(NCCCO)c1ccc(Cl)c2ccccc12
→ 236%[activator] | -4%
CCOC(=O)C1CCC(CN(Cc2ccc(OC)cc2)S(=O)(=O)c2ccc(F)c(C(=O)Nc3c(C)cccc3C)c2)CC1 (stereo not given)
→ -2% | 51%[activator]
COc1cccc2cc(-c3cc(=O)oc4cc(OC(=O)N5CCOCC5)ccc34)c(=O)oc12
→ 1% | 5%
CCNc1ccc(S(=O)(=O)N(CC)CC)cc1NCc1c(F)cccc1Cl
→ 105%[activator] | -11%
O=C(NCc1ccccc1OC(F)(F)F)c1ccccc1C(F)(F)F
→ 40%[activator] | 0%
Cc1c(CNCCCc2ccccc2)c(C(=O)O)c(C)n1Cc1cccc(Cl)c1
→ 88%[activator] | -21%
CC(OC(=O)c1cc2ccccc2s1)C(=O)N1CCNC1=O (stereo not given)
→ -12% | 103%[activator]
CSc1ccc(CCNC(=O)CCc2c(C)nc3cc(-c4ccccc4)nn3c2C)cc1
→ -10% | ?
Cc1ccc(C)c(N2CCN(S(=O)(=O)c3cn(C)c(C)n3)CC2)c1
→ 2% | 4%
c1cc(-c2noc(-c3ccco3)n2)cc(-c2noc(-c3ccco3)n2)c1
→ 3% | 38%[activator]
CN1CCN(S(=O)(=O)c2ccc3c(c2)CCN3)CC1
→ -3% | 0%
CC(C)c1ccc(-c2noc(SCC(=O)N3CCCCC3C)n2)cc1 (stereo not given)
→ -5% | 63%[activator]
Cc1ccc(C(=O)Nc2nc3nc(-c4ccccc4)cc(=O)n3[nH]2)cc1
→ -8% | 0%
CC(=O)Nc1ccc(SC2CCCC2)cc1
→ 14% | 0%
CC(C)c1ccc(/C=C(/CC(=O)O)c2nc3ccccc3o2)cc1
→ 9% | 7%
O=C(/C=C/c1ccc(Cl)c(Cl)c1)c1ccccc1OC(F)F
→ 39%[activator] | 28%
COc1ccc(C2CC(=O)C(C)C(c3ccc(OC)cc3)N2)cc1 (stereo not given)
→ 1% | -2%
CCCC(=O)N(C)CCOc1ccccc1
→ -12% | 23%
CCn1c(CN2CCC(C)CC2)nc2cc(NC(=O)COc3ccc([N+](=O)[O-])cc3)ccc21
→ -13% | -13%
CCn1c(=O)c(=O)n(CC)c2cc(S(=O)(=O)Nc3ccc(C)cc3)ccc21
→ 111%[activator] | -9%
Cc1ccc(-c2nc3nc(C)cc(C)n3c2Nc2ccc3c(c2)OCCO3)cc1
→ 10% | 0%
COc1ccc(Cn2c(CNC(=O)c3ccc(N(C)C)cc3)nc3cccnc32)cc1
→ 52%[activator] | 9%
CCCCOc1cccc(C(=O)Nc2cccc(-c3nc4ncccc4o3)c2C)c1
→ ? | ?
COc1ccc(C(=O)N2CC(=O)Nc3ccc(Br)cc3C2c2ccc(F)cc2)cc1OC (stereo not given)
→ 28% | -16%
CCCCc1ccc(-n2nnnc2SCC(=O)Nc2ccc3c(c2)OCCO3)cc1
→ -7% | 40%[activator]
CCc1ccc(OCC(=O)Nc2ccc3nsnc3c2)cc1
→ -22% | -7%
CN=C1S/C(=C/c2ccc(C)s2)C(=O)N1C
→ -11% | 0%
COc1ccc(N2CCN(C(=O)C3Cc4ccccc4N3C(C)=O)CC2)cc1 (stereo not given)
→ -19% | -9%
CCn1nc(C(=O)Nc2ccnn2C2CCN(C)CC2)c2ccccc2c1=O
→ -10% | 0%
COc1ccc(C(=O)OCc2ccccc2C#N)c(OC)c1
→ 55%[activator] | 0%
COc1ccc(Cl)cc1C(=O)N1CCN(Cc2cc(=O)n3ccsc3n2)CC1
→ 6% | 6%
Cc1ccc(C)c(Cn2c(-n3nc(C)cc3C)nc3c2c(=O)[nH]c(=O)n3C)c1
→ -3% | -1%

# More entries:
# Order of values: 2A Renilla | 2A firefly
COc1ccc(S(=O)(=O)Nc2ccc3c(c2)CCN3C(=O)c2cccnc2)c(C)c1
→ 7% | 2%
CCCc1nn2c(=O)cc(COc3cccc(NC(=O)c4cccs4)c3)nc2s1
→ -1% | 0%
Cc1ccc(NC(=O)c2nnc(SCC(=O)NC3CCCC3)s2)cc1
→ -1% | 207%[activator]
Cc1nc(-c2ccc(S(=O)(=O)Nc3ccc(C)c(C)c3)cc2)co1
→ 178%[activator] | 20%
CC(=O)c1ccc(NC(=O)CSc2ccc(-c3cccs3)nn2)cc1
→ 0% | 78%[activator]
CCOc1ccc(OC(=O)c2cn(-c3cccc(OC)c3)c(=O)c3ccccc23)cc1
→ 21% | -3%
Cc1nnc(N2CCC(C(=O)NC(C)C)CC2)c2nn(-c3ccccc3)c(C)c12
→ 34%[activator] | 24%
N#Cc1ccc(Oc2cccc(C(=O)OCC(=O)c3ccccc3)c2)cc1C#N
→ -11% | -7%
CCOCCCNC(=O)c1c(NC(=O)c2cc(=O)c3cc(C)c(C)cc3o2)sc2c1CCC2
→ 7% | 9%
CCc1ccccc1NC(=O)C1(S(=O)(=O)c2ccc(Cl)cc2)CC1
→ -8% | -13%
CC(/C=N/O)=N/N=C(C)\C=N\O
→ -11% | 1%
Cc1ccc2onc(CNC(=O)N3CCN(c4cccc(C(F)(F)F)c4)CC3)c2c1
→ 14% | -13%
OC(COCc1ccccc1F)Cn1nnc(-c2cccnc2)n1 (stereo not given)
→ -4% | -2%
CSc1ccc(/C=C2\SC(=Nc3ccccc3)N(c3ccccc3)C2=O)cc1
→ -6% | 0%
Cc1ccc(NC(=O)c2oc3ccc(S(=O)(=O)N4CCCCCC4)cc3c2C)cc1Cl
→ -8% | -17%
Cc1ccc2c(CN3CCCCC3C)cc(=O)oc2c1C (stereo not given)
→ 16% | 51%[activator]
COc1ccc(Nc2ncnc3sc4c(c23)CCCC4)cc1
→ -5% | 64%[activator]
Cc1cccc(C)c1-n1nnnc1SC(C(=O)N1CCOCC1)c1ccccc1 (stereo not given)
→ 34%[activator] | 9%
Cc1c(OC(=O)c2ccccc2Cl)cccc1OC(=O)c1ccccc1Cl
→ 7% | 20%
CC(NC(=O)C1CCCCC1)c1cccc(Br)c1 (stereo not given)
→ 17% | 9%

# Copied from the results shown, 2 compounds:
# Order of values: 2A Renilla | 2A firefly
COc1ccccc1C(=O)Nc1ccc(OCc2cc(=O)n3cc(C)sc3n2)cc1
→ -13% | -20%
Cc1cnc(C(=O)OCC(=O)c2ccc3ccccc3c2)cn1
→ -1%[1.06 µM] | 4%

# Next structures.
# Order of values: 2A Renilla | 2A firefly
Cc1ccc(C)c(Cn2c(N3CCN(C/C=C/c4ccccc4)CC3)nc3c2c(=O)[nH]c(=O)n3C)c1
→ 4% | 15%
CCn1c(COc2cccc3cccnc23)nnc1SCC(=O)OC
→ -2% | -6%
COc1cccc2c1C(=O)c1c(O)c3c(c(O)c1C2=O)C[C@@](O)(C(=O)CO)C[C@@H]3O[C@H]1C[C@H](N)[C@H](O)[C@H](C)O1
→ ? | -14%
O=C(Cc1c(C(=O)O)[nH]c2ccccc12)Nc1cccc(C(F)(F)F)c1
→ 6% | -15%
COc1ccc(Nc2nc(-c3ccc(OC)cc3)nc3ccccc23)cc1
→ 60%[activator] | 196%[activator]
Cc1ccc(C)c(Cn2cc(S(=O)(=O)c3ccc(Cl)cc3)c(=O)c3cc(F)ccc32)c1
→ -3% | -5%
O=C(CCN1CCN(c2cnccn2)CC1)Nc1cc(Cl)ccc1Cl
→ -1% | 5%
COc1ccc(OC)c(C2CC(c3ccc(NS(C)(=O)=O)cc3)=NN2C(=O)c2cccs2)c1 (stereo not given)
→ 4% | 8%
Cc1ccc(C(=O)Nc2ccc(O)c(-c3nc4cc(C)ccc4o3)c2)cc1
→ 6% | 27%
COc1ccccc1CNS(=O)(=O)c1ccc2[nH]c3c(c2c1)CCCCC3
→ 164%[activator] | -23%
CC(=O)c1ccc(OCc2ccc(F)cc2)cc1
→ 16% | 0%
COc1ccc(CN2CCN(C(=O)COc3ccc4ccccc4c3)CC2)cc1OC
→ ? | ?
CC(C)c1ccc(SC(C(=O)O)c2ccccc2)cc1 (stereo not given)
→ 7% | 0%
Cc1cccc(-n2c(C)nnc2SCc2nc3ccccc3o2)c1
→ 3% | 15%
CCN(CC)C(=O)COc1ccc(-c2nnc(Nc3ccccc3)c3ccccc23)cc1
→ 62%[activator] | 75%[activator]
Cc1cccc(C(=O)NCCCc2ccccc2)n1
→ 23% | 207%[activator]
O=C(Cc1cccs1)Nc1cccc(-c2nc3ccccc3o2)c1
→ 10% | 4%
COc1ccc(CNC(=O)c2cnc3cc(C)ccn3c2=O)cc1
→ -6% | -2%
Cc1ccc(-c2cc3nccc(-c4cc(C)ccc4O)n3n2)cc1
→ 0% | 31%[activator]
CC(C)(C)CC(=O)NCC(O)c1ccc(Cl)cc1 (stereo not given)
→ 22% | 33%[activator]
CC(C)CCNC(=O)C(Cc1ccccc1)NS(=O)(=O)c1ccc2c(c1)c(=O)n(C)c(=O)n2C (stereo not given)
→ 0% | -4%
Cc1ccc(C(=O)Nc2ccc3oc(-c4ccncc4)nc3c2)cc1C
→ 0% | 0%
Cc1ccc(CCC(=O)NC(C)c2cccnc2)c(C)c1 (stereo not given)
→ 20% | 2%
Cc1[nH]cnc1C(=O)O
→ 4% | 0%
COC(=O)c1sc2ncccc2c1-n1c(C)ccc1C
→ -6% | -5%
Cc1ccc(CN2CC(C(=O)Nc3ncccc3C)CC2=O)cc1 (stereo not given)
→ -11% | -8%
Cc1cc(C)c(C(=O)c2cc3ccccc3o2)c(C)c1
→ 48% | 0%
CC(C)Oc1ccc(C(=O)N(Cc2ccco2)c2ccccn2)cc1
→ 102%[activator] | 206%[activator]
O=C(c1ccco1)N1CCN(c2nc3c(F)cc(F)cc3s2)CC1
→ -9% | 102%[activator]
COCCN1CCCNCC1
→ -9%[1.06 µM] | -5%
COC(=O)c1sc(N2C(=O)C(=O)/C(=C(/O)c3cccc(OC)c3)C2c2ccccc2F)nc1C (stereo not given)
→ 14% | 115%[activator]
Cc1nc(NC(=O)c2cc(Cl)cc(Cl)c2)sc1C
→ 2% | 149%[activator]
N#Cc1nc(/C=C/c2ccc(F)cc2)oc1NCc1ccc(F)cc1
→ 9%&0% | 0%&67%
CCCCn1nc(C(=O)NCc2ccccc2)c2ccccc2c1=O
→ 88%[activator] | -6%
CCCN(Cc1nnc(-c2ccccc2Cl)o1)C(=O)c1cccc(S(=O)(=O)N(C)C)c1
→ 29% | 62%[activator]
